NS1 function inh = inhibitors of influenza NS1 protein function | S. cerevisiae slowed by influenza A NS1, growth recovery by OD600 | Potency, µM (doses to about 46.1 µM), for inactives: top-dose activity, positive = more growth | 0.4% of 270,000 active; active means well fitted rising curve with a large enough effect; inconclusive means small, poorly fitted or top-dose-only effect; inactive means no such curve, though single readings can be large or run the other way; note: nearly all actives have a fitted effect of over 50% in size
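Recovery from NS1-induced slow growth read by OD600 in budding yeast switched to galactose assay medium (pH 6.0, -URA) at 1:100 dilution. Compound 23 nl per well; the matching strain lacking NS1 serves as control.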
Cruzain Triton = inhibitors of Trypanosoma cruzi cruzain with detergent; P25779; purified cruzain, Z-FR-AMC fluorescence, 0.01% Triton; Potency, µM, for inactives: max response, negative = inhibition, usual class: inhibitors; 0.43% of 200,000 active; AID 1478;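 note: plate controls were neutral wells for no effect and buffer without enzyme for full effect; nearly all actives have a fitted effect of over 40% in size; top concentration of the series not given in the record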
Target sequence (P25779 123-467 limits assumed): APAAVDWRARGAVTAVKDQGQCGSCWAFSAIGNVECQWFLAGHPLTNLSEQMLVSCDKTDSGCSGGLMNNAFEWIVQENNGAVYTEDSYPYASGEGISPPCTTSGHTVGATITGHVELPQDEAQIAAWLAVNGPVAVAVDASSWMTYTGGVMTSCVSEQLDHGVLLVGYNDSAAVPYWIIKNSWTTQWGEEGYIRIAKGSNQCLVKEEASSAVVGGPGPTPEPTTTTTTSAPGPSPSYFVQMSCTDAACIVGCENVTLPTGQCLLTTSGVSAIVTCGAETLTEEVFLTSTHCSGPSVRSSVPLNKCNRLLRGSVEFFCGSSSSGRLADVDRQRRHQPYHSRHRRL
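Cruzain (1.5 nM) preincubated 15 min at RT with compound in 100 mM sodium acetate pH 5.5, 5 mM DTT, 0.01% Triton X-100. Reaction started with 2 uM Z-FR-AMC; AMC fluorescence (ex 360/em 450 nm) change over 60 s gave rate.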
Marburg entry inh = Marburg virus entry inhibition; Potency, µM (top dose mostly 37.8 µM), without a hit: at the highest dose activity change, negative = inhibition, usual class: inhibitors; 1.8% of 300,000 active; Marburg virus pseudotyped entry inhibition, cell reporter; control for the full effect not named in the record; about a third of the inactives were read at about 46 µM; active = well fitted inhibition curve with a large enough effect; inconclusive = small, poorly fitted or top-dose-only effect, or effect the other way; inactive = flat fitted curve, though single readings scatter; tested in HEK293 cells; about a fifth of its hits are not listed in these tables; note: % is set by controls: 0 for no effect and ±100 for the full control effect; luciferase read-out
SARS PLP yeast = blocks SARS-CoV papain-like protease in a yeast assay; 0.19% of 330,000 active; Potency, µM (highest dose often 32.9 µM), without a hit: top-dose activity, positive = growth rescue; S. cerevisiae expressing SARS-CoV PLpro, growth rescue; control for the full effect not named in the record; active means well fitted rising curve with a large enough effect; inconclusive means small, poorly fitted or top-dose-only effect; inactive means no such curve, though single readings can be large or run the other way; note: 0% is about no effect; nearly all actives have a fitted effect of over 55% in size; growth read by luminescence after 48 h
StopGo reporter = FMDV 2A StopGo reporter, luciferase signal. human cells with a luciferase reporter of 2A StopGo recoding; control for the full effect not named in the record. Potency, µM (highest dose often 57.9 µM), without a hit: top-dose signal change, negative = less light. 1.2% of 410,000 active. AID 1159524; active = well fitted falling curve with a large enough effect; inconclusive = small, poorly fitted or top-dose-only effect; inactive = no such curve, though single readings can be large or run the other way; tested in HEK293T cells; note: % is set by controls: 0 for no effect and ±100 for the full control effect; nearly all actives have a fitted effect of over 45% in size; luciferase light after 4 h
Cruzain noTriton = blocks cruzain activity in detergent-free assay | AID 1476 | Potency, µM, without a hit: max response, negative = inhibition, actives largely listed as inhibitors | P25779 | 2.3% of 200,000 active | purified cruzain, Z-FR-AMC fluorescence, no detergent;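 note: plate controls were enzyme without inhibitor for no effect and buffer without enzyme for full effect; nearly all actives have a fitted effect of over 40% in size; top concentration of the series not given in the record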
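Detergent-free condition (0.00005% Triton X-100) in acetate buffer pH 5.5 with DTT. 1.5 nM enzyme and compound were pre-mixed 15 min, then 2 uM Z-FR-AMC substrate added; reaction progress from fluorescence change between first and third reads (60 s).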
Lassa entry inh = Lassa virus entry inhibition; Lassa virus pseudotype entry inhibition, cell reporter; control for the full effect not named in the record; Potency, µM (series often up to 37.9 µM), for the others: at the top dose activity change, negative = inhibition, most hits filed as inhibitors; 1.2% of 300,000 active; AID 540256; active means well fitted inhibition curve with a large enough effect; inconclusive means small, poorly fitted or top-dose-only effect, or effect the other way; inactive means flat fitted curve, though single readings scatter; tested in HEK293 cells; note: % is set by controls: 0 for no effect and ±100 for the full control effect; nearly all actives have a fitted effect of over 50% in size; luciferase read-out
RE007 growth inh = less growth of the S. pombe RE007 Vpr strain; S. pombe RE007 Vpr strain, BacTiter-Glo ATP luminescence, 24 h; control for the full effect not named in the record; Potency, µM (top dose mostly 92.2 µM), for the others: at the highest dose activity change, negative = less growth; 0.21% of 360,000 active; AID 651644; active = well fitted falling curve with a large enough effect; inconclusive = small, poorly fitted or top-dose-only effect; inactive = no such curve, though single readings can be large or run the other way;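 note: % is set by controls: 0 for no effect and ±100 for the full control effect; nearly all actives have a fitted effect of over 50% in size; the assay follows cell death caused by Vpr and the record does not say whether a fall means rescue or toxicity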
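Fission yeast strain RE007, carrying one chromosomally integrated HIV-1 vpr copy, was seeded at OD 0.01 in PMG+AL medium with 23 nL pinned compound. After 24 h at 30 °C and 99% humidity, viability was read by BacTiter-Glo luminescence.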
The depositor's hits bear a star; ? = inconclusive; · = no result given; [ ] = another dose, or the depositor's remark. Unless noted, calls come from the whole dose curve; as a rule, active = well fitted curve in the direction sought with a large enough effect; inconclusive = small, poorly fitted or top-dose-only effect, or another doubt; inactive = no such curve, though single readings can be large; an effect the other way counts as inactive or inconclusive. Potency is the fitted concentration of half-maximal effect.

SMILES	NS1 function inh	Cruzain Triton	Marburg entry inh	SARS PLP yeast	StopGo reporter	Cruzain noTriton	Lassa entry inh	RE007 growth inh
CCOC(=O)N1CCN(C(=O)c2ccc(N3CCCC3=O)cc2)CC1	-1%	4.2%	-8%	9%	-9%	-2%	15%	5%
COC(=O)c1cncn1Cc1ccccc1	·	·	-2%[46.1 µM]	·	-3%	·	17%[46.1 µM]	-10%
COC(=O)C1=C(C)NC(c2c(O)ccc3ccccc23)C(C(=O)OC)=C1C (stereo not drawn)	6%	-2.7%	-16%	23%	-21%	?	-8%	-25%
O=C(Oc1ccc(-c2ccccc2)cc1)C1C2CCCCC21 (stereo not drawn)	3%	-6.2%	-3%	-6%	53%[activator]	8%	9%	2%
Cc1ccc(Cn2nc(C)c(NC(=O)C3(C)CC3(Br)Br)c2C)cc1 (stereo not drawn)	-6%	-0.8%	18%	0%	-14%	-5%	6%	18%
Cc1ccc(N2CC(C(=O)Nc3ccc4c(c3)OCO4)CC2=O)cc1C (stereo not drawn)	-1%	·	3%	1%	6%	·	-10%	-6%
COc1ccccc1C(=O)Nc1nnn(C)n1	-7%	1.6%	15%	-3%	35%[activator]	9%	0%	-4%
CN(C)S(=O)(=O)c1ccc(N2CCCC2)c(C(=O)Nc2ccccc2F)c1	·	·	9%	0%	-19%	·	4%[46.1 µM]	-15%
Cc1cc(Cl)ccc1C(=O)C1CCCN(C(=O)c2cnn(C(C)C)c2)C1 (stereo not drawn)	-4%	·	·	0%	?	·	·	23%
O=C(O)c1ccc(-n2nc(C(F)(F)F)cc2-c2cccs2)cc1	-47%	·	·	-2%	-15%	·	·	-20%
COc1ccc(-c2[nH]ncc2N=Nc2ccccc2)cc1	·	·	?	-10%	-22%	·	?	-25%
O=C(/C=C/c1ccccc1)NC(=S)NNC(=O)c1cccnc1	-31%	-3.0%	7%	-2%	5%	-3%	21%	-1%
CC(=O)Nc1cccc(NC(=S)Nc2cccc(Cl)c2Cl)c1	1%	·	19%[46.1 µM]	-1%	11%	·	-1%	-7%
CC12CCC(C(=O)NC3CCCC3)(CC1=O)C2(C)C (stereo not drawn)	5%	1.9%	-3%	-2%	-1%	13%	-11%	-18%
Cc1ccc(C(=O)COC(=O)c2c(C)cc(=O)oc2C)cc1[N+](=O)[O-]	2%	-6.5%	6%	0%	-13%	-6%	4%	·
CS(=O)(=O)Oc1ccc(Br)c2cccnc12	-3%	·	·	2%	12%	·	·	-4%
CCOc1ccc(NC(=O)CC2C(=O)N(CC)C(=S)N2NC(=O)c2ccncc2)cc1 (stereo not drawn)	?	·	-13%	-1%	-8%	·	9%	3%
Cc1nc(-c2ccccc2)sc1-c1ccc(SCC(=O)NCc2ccccc2)nn1	·	-2.0%	·	·	-14%	-3%	?	·
CCCNC(=O)NC(=O)CSc1nncs1	·	·	14%[46.1 µM]	2%	12%	·	10%[46.1 µM]	40%
CCN(CC)c1cnn(C/C(=N\OC)c2ccc(Cl)cc2)c(=O)c1Br	-52%	1.7%	?	-7%	-20%	-17%	-29%	4%
COC(=O)c1cnc(Oc2ccc(NC(=O)NC(=O)c3c(OC)cccc3OC)cc2)cc1C(F)(F)F	-1%	·	1.6µM*	-1%	-27%	·	?	5%
CCOC(=O)c1ccc(-c2c(-c3cc(OC)c(OC)c(OC)c3)noc2C)cc1F	-34%	·	·	-9%	-21%	·	·	-9%
COc1ccc(OCCC(=O)OCC(=O)NC(=O)NC(C)C)cc1	6%	-0.9%	-13%	-10%	14%	6%	?	-24%
CCn1cc(S(=O)(=O)c2ccc(C)cc2)c(=O)c2cc(F)c(N3CCN(C)CC3)cc21	-14%	·	?	-4%	9%	·	15%[46.1 µM]	1%
O=C(NC1CCCCCC1)C1CCN(C(=O)c2ccc(Cl)cc2)CC1	·	·	?	3%	-11%	·	0%	8%
Cc1cc(C)n(-c2ccc(C(=O)Nc3ccc4c(c3)OCCO4)cc2)n1	-41%	1.0%	-26%	-11%	-2%	-4%	4%	18%
COc1ccc(OC)c(-c2csc3nnc(SCC(=O)Nc4ccc(NC(C)=O)cc4)n23)c1	-6%	-2.4%	-1%	-7%	18%	-13%	3%[14.3 µM]	-4%
O=C(Nc1cc(=O)[nH]c(=O)[nH]1)c1cccc(C(F)(F)F)c1	-8%	·	·	0%	0%	·	·	-3%
COC(=O)c1cc2c(s1)-c1ccccc1OC2	-62%	?	·	-1%	37%[activator]	?	·	-19%
CCCCNC(=O)/C(=C/c1ccco1)NC(=O)c1ccco1	21%	·	-1%	-3%	8%	·	13%	-7%
CCOCCCn1c(SCC(=O)Nc2oc(C)c3c(C)n[nH]c(=O)c23)nnc1-c1ccncc1	·	·	-11%[46.1 µM]	9%	5%	·	0%	-23%
COc1ccc2c(CNCc3cccs3)c(C(=O)O)n(Cc3cccc(F)c3)c2c1	·	-3.5%	·	·	41%[activator]	-4%	-13%[46.1 µM]	·
C/C(=N\Nc1nc2ccccc2s1)c1cccs1	?	-11%	?	-80%	-45%	-23%	6.5µM*	35µM*
COc1ccc(C(=O)O/N=C(\N)c2ccc(Cl)cc2)cc1	-52%	·	·	-11%	52%[activator]	·	·	-7%
Cc1ccc(S(=O)(=O)c2cnc(-c3ccccc3)nc2N2CCN(C)CC2)cc1	-3%	·	·	-1%	3%	·	·	5%
CC(C)(C)c1ccc(C(=O)OCCN2CCCCC2)cc1	0%	·	·	-3%	34%[activator]	·	·	-14%
CN1CCN(c2nc(-c3ccc(Cl)s3)cs2)CC1	3%	·	27%[46.1 µM]	-1%	55%[activator]	·	4%	-1%
CCc1cc2c(N3CCCCC3)ncnc2s1	-105%	0.3%	-18%	-6%	?	4%	2%	-4%
COc1ccc2cc(C(C)C(=O)Nc3cccc(S(=O)(=O)N(C)C)c3)ccc2c1 (stereo not drawn)	-3%	·	?	-3%	14%	·	?	-4%
COc1ccccc1NC(=O)N1CCN(C(=O)c2ccco2)CC1	7%	·	14%[46.1 µM]	-2%	50%[activator]	·	-13%	3%
O=C(NCc1nnc(SCC(=O)N2CCCC2)o1)c1c(F)cccc1F	-1%	·	3%	0%	-17%	·	17%	6%
Cc1ccc(-c2nnc3c(C(F)(F)F)nc4ccccc4n23)cc1	-2%	1.4%	-6%	1%	-15%	-2%	-3%	16%
COc1cc(F)ccc1S(=O)(=O)N1CCN(C23CC4CC(CC(C4)C2)C3)CC1	-11%	2.3%	?	-3%	-22%	2%	-28%	-23%
COc1ccc(-c2cc(C)no2)cc1S(=O)(=O)Nc1ccccc1	-5%	·	·	0%	23%	·	·	-8%
O=C(NC1CCCCC1)C1CCN(c2cnccn2)CC1	3%	-0.8%	-6%	-3%	18%	-3%	1%	2%
CN(c1cccc(NS(=O)(=O)c2ccccc2)c1)S(C)(=O)=O	-2%	·	-3%[46.1 µM]	0%	11%	·	0%	-23%
COc1ccc(CN2CC(C(=O)NCCC(C)C)CC2=O)cc1 (stereo not drawn)	·	·	4%	0%	-10%	·	?	-8%
COC(=O)CSc1nnc(NC(=O)C2CC(=O)N(c3ccc(F)cc3)C2)s1 (stereo not drawn)	27%	·	-22%	-6%	-8%	·	4%	-7%
O=C(N/C(=C/c1ccco1)C(=O)N1CCCC1)c1cccs1	14%	-1.0%	-20%[46.1 µM]	1%	10%	-12%	-1%	-12%
CCCn1nnc(NC(=O)c2ccc(Br)o2)n1	-1%	5.4%	30%	-4%	53%[activator]	-1%	4%	18%
C=C(C)Cn1c(SCCN2CCOCC2)nc2c1c(=O)[nH]c(=O)n2C	-3%	-1.2%	1%	1%	-21%	0%	15%	2%
O=C(O)c1cc(Nc2cc(Cl)c3nonc3c2[N+](=O)[O-])ccc1O	4%	·	·	3%	-19%	·	·	-19%
CCOC(=O)CSc1nnc(-c2ccc(OC)cc2)n1CC	-9%	1.7%	-2%	3%	8%	-7%	9%	16%
CCOC(=O)Cc1c(C)nc(SC)[nH]c1=O	2%	·	7%[46.1 µM]	0%	-6%	·	-1%	0%
Cc1ccc(CN2CCN(Cc3ccncc3)CC2CCO)o1 (stereo not drawn)	2%	·	3%[46.1 µM]	0%	-20%	·	20%[46.1 µM]	-19%
O=C(c1ccco1)N1CCN(Cc2cccc(F)c2)CC1	2%	-1.8%	1%[46.1 µM]	-3%	7%	6%	1%	-8%
CSc1nc(O)c(C(c2ccc(F)cc2)c2c(O)nc(SC)[nH]c2=O)c(=O)[nH]1	·	·	-1%[46.1 µM]	·	-7%	·	19%[46.1 µM]	10%
Cn1c(=O)n(-c2ccc(Cl)cc2)c(=O)c2c3c(sc21)COC(C)(C)C3	5%	6.3%	18%	1%	-22%	9%	-2%	-1%
Nc1c(C(=O)c2ccc3c(c2)OCO3)sc(Nc2ccccc2F)c1S(=O)(=O)c1ccccc1	·	-3.8%	·	·	16%	?	-13%[46.1 µM]	·
Cc1ccc(CCNC(=O)c2oc(=O)c3ccccc3c2-c2ccc(C)cc2)cc1	·	-6.0%	?	·	-23%	3%	1%[46.1 µM]	·
Additional results.
SMILES	NS1 function inh	Cruzain Triton	Marburg entry inh	SARS PLP yeast	StopGo reporter	Cruzain noTriton	Lassa entry inh	RE007 growth inh
Cc1nc2ccccc2n1CC(=O)NC(C)C1CC2CCC1C2 (stereo not drawn)	1%	·	?	0%	?	·	-19%	-5%
Cc1ccc(-c2nc(N)sc2-c2ccc(C)cc2)cc1	·	·	·	-5%	?	·	-26%	0%
CCC(C)NC(=O)CCc1nc2ccccc2n1-c1ccccc1 (stereo not drawn)	-18%	-0.6%	10%	-24%	-28%	-7%	-3%	10%
CCn1c(=O)c2cc(C(=O)N(C)c3ccccc3F)sc2c2ccccc21	5%	·	-1%[46.1 µM]	0%	-26%	·	-4%[46.1 µM]	1%
Cc1cc(C)c2nc(NC(=O)c3ccc4c(c3)OCO4)sc2c1	10%	5.7%	-21%	-11%	·	10µM*	-1%	5%
CC(C)C(NC(=O)C12CC3CC(CC(C3)C1)C2)C(=O)NC1=NCCS1 (stereo not drawn)	-51%	0.7%	0%	-39%	·	0%	·	·
CC(C)(C)NC(=O)NC(=O)COC(=O)Cc1c(F)cccc1Cl	·	·	-9%	-1%	-19%	·	1%	2%

Compound activity (PubChem)
